# Mtb growth = Mycobacterium tuberculosis H37Rv growth inhibition, putative kinase inhibitor library, confirmatory dose response (AID 2842); M. tuberculosis H37Rv growth inhibition; higher % means a stronger effect; some inactives read as strong as hits; inhibition, % at 10 µg/mL, or IC90 in µg/mL where a hit was titrated; 5.2% of 24,000 active;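 active = confirmed in a dose series; about a fifth of its hits are not listed in these tables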;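 note: bacteria incubated one week before Alamar blue readout; 0% = bacteria only wells and 100% = bacteria with high antibiotic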
# * = called active by the depositor. The list is partial; rates above refer to the full screens.
SMILES,Mtb growth
Cc1nnc(Nc2ccccc2O)[nH]c1=O,-3.8%
CCC(=O)Nc1nc2cc3sc(NC(=O)CC)nc3cc2s1,3.8%
CS(=O)(=O)c1ccc2nc(NC(=O)c3ccco3)sc2c1,-0.3%
Cc1cc(N2CCN(C)CC2)n2ncc(-c3ccccc3)c2n1,26.5%
COc1ccc(-c2nc(SCC(=O)Nc3cccc(OC)c3)c3c(=O)n(C)c(=O)n(C)c3n2)cc1,-2.3%
Cc1ccc2c(c1)C(c1ccccc1)N(C(=O)c1ccccc1Br)CC(=O)N2 (configuration not stated),8.7%
COc1ccc(N2C(=O)/C(=C3/C(=O)N(C(C)=O)c4ccccc43)SC2=S)c(OC)c1,2.0%
Cc1cccc(NC(=O)c2ccc(S(=O)(=O)N3CCCCC3)cc2)n1,-7.5%
CC(=O)Cc1nsc(NC(=O)c2ccoc2COc2ccc(C)cc2)n1,2.9%
CCOC(=O)Nc1c(C(=O)Nc2ccc3c(c2)OCCO3)oc2ccccc12,-6.1%
COC(=O)c1c(NC(=O)c2c(F)cccc2F)sc2c1CCN(C(C)=O)C2,35.9%
COc1cccc(Cn2cc(S(=O)(=O)c3ccc(F)cc3)c(=O)c3cc(OC)c(OC)cc32)c1,-2.3%
Cc1ccccc1NC(=O)CSc1ccc2nnc(-c3ccc(F)cc3)n2n1,-2.7%
COc1ccc(Nc2nc(Nc3ccc(F)cc3)nc3nccnc23)cc1,20.4%
COc1ccc(C(=O)COc2cccc3c2CCNC3=O)cc1,-7.6%
O=C(Nc1ccccc1)c1ccc(S(=O)(=O)N2CCCCC2)cc1,-1.8%
O=C(Nc1nnc(-c2ccccc2)o1)c1ccc2ncsc2c1,68.8%
CCCC(=O)Nc1scc2c(C(=O)OCC)nn(-c3ccccc3)c(=O)c12,5.6%
Cc1ccc(NC(=O)COC(=O)c2ccc(N3C(=O)c4ccccc4C3=O)cc2)cc1Cl,1.7%
COc1ccc(-c2nnc3ccc(SCc4ccccc4F)nn23)cc1OC,-7.6%
O=C(Oc1ccccc1[N+](=O)[O-])N1CCOCC1,10.4%
O=C(CSc1nc2[nH]ncc2c(=O)[nH]1)c1ccccc1,-8.4%
CCc1nnc(NS(=O)(=O)c2ccc(NC(=O)c3ccc([N+](=O)[O-])cc3)cc2)s1,9.7%
CCOCCn1c(SCC(=O)Nc2ccccc2)nc2c1c(=O)[nH]c(=O)n2C,-6.5%
Nc1c(C(=O)NCc2cccs2)c2nc3ccccc3nc2n1-c1ccc(F)cc1,1.5%

# Other results.
SMILES,Mtb growth
COc1ccc(Cc2nnc(NC(=O)c3ccccc3C)s2)cc1,34.2%
Cc1cccc(-c2nc3scc(CCNC(=O)c4ccc5ccccc5c4)n3n2)c1,1.8%
COc1cccc(NC(=O)CSc2nc(N)c(NC(=O)c3cccs3)c(=O)[nH]2)c1,-18.7%
O=C1Nc2ccc(S(=O)(=O)Nc3cc(Cl)ccc3Cl)c3cccc1c23,-10.8%
O=C(Nc1cccnc1)c1ccc(C(=O)Nc2cccnc2)cc1,11.0%
O=C(Nc1c(C(=O)Nc2cccc(F)c2)oc2ccccc12)c1ccc([N+](=O)[O-])cc1,5.3%
CCN1CCc2c(OCC(=O)Nc3ccc4c(c3)OCO4)cccc2C1=O,3.6%
Nc1ncnc(Nc2ccc(Br)cc2)c1[N+](=O)[O-],0.7%
NC(=O)c1ccsc1NC(=O)CS(=O)(=O)c1ccccc1,-49.7%
Cc1cc(C)c(-c2csc(NC(=O)c3cc(=O)c4ccccc4o3)n2)c(C)c1,24.4%
CN1CCN(Cc2c(O)ccc3c2O/C(=C\c2ccccc2)C3=O)CC1,-12.9%
O=C(Cn1cnc2c(cnn2-c2ccc(F)cc2)c1=O)Nc1ccc(F)cc1F,0.8%
COc1ccc(-n2c(=O)[nH]c3c(C(N)=O)nc(-c4ccc(C(F)(F)F)cc4)nc32)cc1,5.5%
CCOC(=O)c1nn(-c2ccc(C)cc2)c(=O)c2c(NC(=O)c3ccccc3OC)scc12,-5.8%
CCOC(=O)c1nn(-c2ccc(F)cc2)c(=O)c2c(NC(=O)c3cccc(C(F)(F)F)c3)scc12,-9.7%
Cc1c(Cc2ccc3c(c2)OCO3)sc(NC(=O)c2cc(Cl)cc(Cl)c2)c1C#N,0.0%
CCN(c1ccccc1)S(=O)(=O)c1ccc2[nH]c(=O)[nH]c2c1,-19.7%
CC(Sc1ccc2nnc(-c3ccc(F)cc3)n2n1)C(=O)O (configuration not stated),-25.5%
Cc1cccc(C)c1NC(=O)CC(C(=O)O)N1CCN(C)CC1 (configuration not stated),5.4%
CCN1CCN(CC(=O)Nc2cccc(Cl)c2)C(=O)C1=O,-4.5%
c1cncc(CSc2nnc3ccc(-c4cccnc4)nn23)c1,-11.0%
CCc1ccc(S(=O)(=O)c2cn(Cc3ccc(F)cc3)c3ccc(OC)cc3c2=O)cc1,-5.6%
O=c1ccn2c(SCc3ccc([N+](=O)[O-])cc3)nnc2[nH]1,-3.6%
CNC(=O)c1ccsc1NC(=O)c1ccc(C#N)cc1,1.1%
CCn1cc(C(=O)Nc2ccc(C(N)=O)cc2)c2nn(-c3ccccc3)c(=O)c-2c1,14.3%

# (cont.)
SMILES,Mtb growth
O=C(Nc1nnc(SCC(=O)N2CCCc3ccccc32)s1)c1ccc(-c2ccccc2)cc1,6.8%
C=CCn1ccc2c(OCC(N)=O)cccc2c1=O,-8.6%
COc1ccccc1-c1csc(NC(=O)c2cc(-c3ccccc3)nc3ccccc23)n1,11.2%
CN(c1ccccc1)S(=O)(=O)c1ccc(C(=O)Nc2ccc(Br)cc2C(=O)c2ccccc2)cc1,12.5%
CC1CCN(CC(O)Cn2c3ccccc3c3ccccc32)CC1 (configuration not stated),16.4%
COc1ccc(C(=O)Nc2c(N)nc(SCC(=O)Nc3ccc(Cl)cc3)[nH]c2=O)cc1OC,-6.1%
Cc1cc(C)c(NC(=O)CSc2nnc(-c3ccncc3)o2)c(C)c1,-17.7%
O=C(CSc1ncnc2c1oc1ccccc12)OCc1ccccc1,12.1µg/mL*
Cc1c(C)n2c(SCC(=O)N3CCCC3)nnc2[nH]c1=O,-11.4%
O=C(CSc1nc2c(c(=O)n1-c1ccc(Cl)cc1)SCC2)Nc1ccc(F)cc1,12.0%
O=C(Cc1ccccc1)Nc1nnc(-c2ccc3c(c2)OCCO3)o1,15.8µg/mL*
CCOc1ccccc1NC(=O)c1oc2ccccc2c1NC(=O)CCc1ccccc1,-5.4%
Cn1c(=O)c2c(nc(N3CCOCC3)n2CC(O)COc2ccccc2)n(C)c1=O (configuration not stated),-0.5%
Cc1ccc2nc(NC(=O)CSc3nc(N)c(NC(=O)c4ccccc4F)c(=O)[nH]3)sc2c1,-6.5%
COc1ccc(NC(=O)c2sc3nc4c(c(-c5ccco5)c3c2N)CCCC4)cc1,11.5%
CCSc1nnc(CSc2nc(C)cc(C)n2)n1-c1ccc(OC)cc1,2.2%
Cc1cccc(Oc2coc3cc(OCC(=O)N4CCCCC4)ccc3c2=O)c1,7.2%
COc1ccc(NC(=O)c2cnc3n(c2=O)CCS3)cc1Cl,-0.6%
COc1ccc(NC(=O)c2ccc(-c3nc4ccccc4s3)s2)cc1,65.5%
NC(=O)c1ccc(NC(=O)CSc2nc3[nH]ncc3c(=O)[nH]2)cc1,5.5%
CCOC(=O)c1c(NC(=O)C2CCCCC2)sc2c1CCC(C)C2 (configuration not stated),9.1%
Cc1cc2c(c(=O)n1CCO)C(c1ccccc1F)C(C#N)=C(N)O2 (configuration not stated),0.3%
O=C(Nc1cccc(F)c1)C(=O)Nc1cc2c3c(c1)CCN3C(=O)CC2,1.4%
Cc1ccccc1N=c1scc(-c2cccs2)n1CCO,69.4%
COC(=O)c1c(NC(=O)c2cccc(Oc3ccccc3)c2)sc2c1CC(C)(C)NC2(C)C,13.0%

# Following part.
SMILES,Mtb growth
O=C(O)c1cccc(Nc2nc(-c3ccccc3)nc3ccccc23)c1,19.1%
C#CCn1c(=NC(=O)c2cc3c(ccc4ccccc43)oc2=O)sc2cc(S(N)(=O)=O)ccc21,9.0%
Cc1cccc2nc(NC(=O)c3ccc(Oc4ccccc4)cc3)sc12,8.53µg/mL*
CCOc1ccccc1NC(=O)CSc1ccc(-c2ccc(Cl)cc2)nn1,74.7%
Cn1c(=O)c2c(nc(CN3CCC(Cc4ccccc4)CC3)n2CCN2CCOCC2)n(C)c1=O,-5.0%
CC(/C=C/c1ccccc1)=N\Nc1nc2c(c(=O)[nH]c(=O)n2C)n1CC(C)O (configuration not stated),2.6%
COC(=O)c1ccccc1C(=O)Oc1coc(CSc2nccc(C)n2)cc1=O,-15.8%
O=C(COc1ccc2c(=O)c(-c3ccccc3)coc2c1)Nc1ccc(F)cc1,0.0%
CCOC(=O)c1nn(-c2ccc(OC)cc2)c(=O)c2c(NC(=O)Cc3ccc(OC)c(OC)c3)scc12,-2.0%
Cn1c(=O)[nH]c(=O)c2c1nc(N1CCOCC1)n2CCCSc1nc2ccccc2o1,2.9%
CCOc1ccccc1NC(=O)CSc1nc2c([nH]c3ccccc32)c(=O)n1-c1cccc(Cl)c1,4.8%
CN1CCc2c(sc(NC(=O)c3ccccc3)c2C(N)=O)C1,7.5%
Cn1c(=O)c2c(SCc3ccc(F)cc3)nc(-c3cccs3)nc2n(C)c1=O,-7.6%
CCOC(=O)c1nn(-c2ccccc2)c(=O)c2c(NC(=O)c3ccc4ccccc4c3)scc12,-8.9%
O=C(Cc1ccc([N+](=O)[O-])cc1)NC1CC(=O)N(c2ccc3c(c2)OCCO3)C1 (configuration not stated),-0.7%
CCCCSc1nc2c(c(=O)[nH]c(=O)n2C)n1C(C)C,17.0%
Cc1nnc(NC(=O)CSc2nnc3ccc(-c4cccc([N+](=O)[O-])c4)nn23)s1,5.5%
Nc1c(-c2nc(-c3ccncc3)no2)nnn1-c1ccc(Br)cc1,-0.6%
CCOC(=O)c1nn(-c2ccc(Cl)cc2)c(=O)c2c(NC(=O)c3ccc(OCC)c(OCC)c3)scc12,9.3%
Cc1ccc(C(=O)Nc2sc3c(c2C#N)CC(C)CC3)cc1 (configuration not stated),-2.6%
C=C(C)Cn1c(Sc2nc3ccccc3[nH]2)nc2c1c(=O)[nH]c(=O)n2C,0.5%
Cc1ccc(NC(=O)c2cnc3scc(C)n3c2=O)cc1C,7.0%
CCOC(=O)c1nn(-c2ccc(C(F)(F)F)cc2)c(=O)c2c(NC(=O)Cc3ccc([N+](=O)[O-])cc3)scc12,8.0%
Cc1cc(C)nc(SCc2cc(=O)c(OC(=O)c3ccccc3C)co2)n1,-8.8%
CSc1ccccc1-c1nnc(NC(=O)c2cc([N+](=O)[O-])ccc2Cl)o1,2.12µg/mL*

# Of the compounds above, these contain a nitro group on carbon:
SMILES,Mtb growth
O=C(Oc1ccccc1[N+](=O)[O-])N1CCOCC1,10.4%
CCc1nnc(NS(=O)(=O)c2ccc(NC(=O)c3ccc([N+](=O)[O-])cc3)cc2)s1,9.7%
O=C(Nc1c(C(=O)Nc2cccc(F)c2)oc2ccccc12)c1ccc([N+](=O)[O-])cc1,5.3%
Nc1ncnc(Nc2ccc(Br)cc2)c1[N+](=O)[O-],0.7%
O=c1ccn2c(SCc3ccc([N+](=O)[O-])cc3)nnc2[nH]1,-3.6%
O=C(Cc1ccc([N+](=O)[O-])cc1)NC1CC(=O)N(c2ccc3c(c2)OCCO3)C1 (configuration not stated),-0.7%
Cc1nnc(NC(=O)CSc2nnc3ccc(-c4cccc([N+](=O)[O-])c4)nn23)s1,5.5%
CCOC(=O)c1nn(-c2ccc(C(F)(F)F)cc2)c(=O)c2c(NC(=O)Cc3ccc([N+](=O)[O-])cc3)scc12,8.0%
CSc1ccccc1-c1nnc(NC(=O)c2cc([N+](=O)[O-])ccc2Cl)o1,2.12µg/mL*

# Additional results:
SMILES,Mtb growth
CCOC(=O)c1cnc2c(ccc3ccccc32)c1NCc1cccnc1,0.6%
COc1ccc2sc(Nc3ccc(F)cc3)nc2c1,-0.3%
O=C(Nc1c(C(=O)Nc2ccc([N+](=O)[O-])cc2)oc2ccccc12)c1ccccc1[N+](=O)[O-],12.2%
Cn1c(Cn2c(=O)sc3ccccc32)nnc1SCC(=O)Nc1nc2ccccc2s1,-2.4%
COc1ccc(OC)c2[nH]c(=O)c(CCNC(=O)c3ccc(Br)cc3)cc12,10.0%
COc1cc2c3nnc(-c4ccc(C)cc4)c-3cn(Cc3cccc(F)c3)c2cc1OC,23.3%
Cc1ccc2nc(NC(=O)CSc3nccn3-c3ccc(F)cc3)sc2c1,4.4%
Cc1ccc(NC(=O)c2oc3ccccc3c2NC(=O)c2cccc(Cl)c2)cc1C,-3.4%
O=C(Cc1cccc2ccccc12)N=Nc1c(O)[nH]c2ccccc12,2.6%
Cc1nc2c(ccc3nc(NC(=O)c4ccc(C(=O)c5ccccc5)cc4)sc32)s1,-3.2%
O=C(CSc1ccc(-c2ccc3c(c2)OCO3)nn1)N1CCCC1,-11.7%
CCSc1nc2c(c(=O)[nH]1)C(c1ccc(F)cc1)C(C(=O)OC)=C(C)N2 (configuration not stated),14.2%
Cn1c(=O)[nH]c(=O)c2c1nc(SCC(=O)O)n2Cc1ccc(Cl)cc1,12.0%
O=C(Nc1ccc2c(c1)OCO2)c1oc2ccccc2c1NC(=O)C12CC3CC(CC(C3)C1)C2,-7.4%
COc1ccc2sc(N(Cc3ccncc3)C(=O)CCc3ccccc3)nc2c1,-1.1%
CC(=O)Nc1cccc(NC(=O)Cn2cnc3c(cnn3-c3ccc(C)c(C)c3)c2=O)c1,-2.9%
Nc1ncnc(NCCCc2ccccc2)c1[N+](=O)[O-],5.0%
Cc1ccc(NC(=O)CSc2nc(N)c(NC(=O)c3cccs3)c(=O)[nH]2)cc1Cl,64.6%
O=C(Cc1cccs1)Nc1c(C(=O)Nc2ccc3c(c2)OCCO3)oc2ccccc12,7.4%
COc1ccccc1C(=O)Oc1cc(C)[nH]c(=O)c1[N+](=O)[O-],-0.8%
CCOc1ccc2c(c1)c(=O)c(S(=O)(=O)c1ccc(F)cc1)cn2Cc1ccccc1Cl,27.3%
COc1ccccc1NC(=O)CSc1nnc2ccc(-c3ccccn3)nn12,0.1%
CC(C)(C)c1ccc(OCC(=O)Nc2ccc(S(=O)(=O)Nc3ncccn3)cc2)cc1,-8.3%

# Pulled by structure from the entries so far, two records:
SMILES,Mtb growth
COc1cc2c3nnc(-c4ccc(C)cc4)c-3cn(Cc3cccc(F)c3)c2cc1OC,23.3%
COc1ccc(OC)c2[nH]c(=O)c(CCNC(=O)c3ccc(Br)cc3)cc12,10.0%

# Source: PubChem (Southern Research Institute)
